nsP2pro primary: Primary qHTS for inhibitors of NSP2Pro chikungunya virus (CHIKV) | Polyprotein P1234 (Chikungunya virus (strain S27-African prototype)), Q8JUX6 | FRET peptide cleavage, nsP2pro, fluorescence 1 h | Potency, µM (highest dose often 24.9 µM), for inactives: at the highest dose activity change, negative = inhibition, actives largely listed as inhibitors | actives 1.1% (n = 31,000) | AID 1964107, 2024; active means well fitted inhibition curve with a large enough effect; inconclusive means small, poorly fitted or top-dose-only effect; inactive means no such curve, though single readings can be large or run the other way; also: nearly all actives have a fitted effect of over 60% in size; a reference inhibitor and vehicle were the controls
Starred values were filed as active, the others as inactive; i = inactive; ? = inconclusive; & = joins results of further samples; [ ] = another dose, or the depositor's remark. % is scaled to controls: 0 for no effect and ±100 for the full control effect; potency is read from the fitted curve at half-maximal effect. The list is partial; count on the stated rates, not on these rows.

SMILES | nsP2pro primary
CCOC(=O)c1c(C)[nH]c(C)c1S(=O)(=O)N1CCCC(C(=O)N2CCN(c3cccc(C)c3C)CC2)C1 (stereo not drawn) | 6%
Cc1ncoc1C(=O)N1CCC2(CCCN(C3CCOCC3)C2=O)C1 (stereo not drawn) | 10%
C[C@@H]1CC[C@]2(C(=O)O)CC[C@]3(C)C(=CCC4[C@]5(C)C(CC[C@]43C)C(C)(C)[C@@H](O)[C@H](O)[C@@H]5O)C2[C@]1(C)O (stereo partly drawn) | ?
C=C1C2(C)CC3C(C)(O)C4=CC(=O)OC(C)(C)C4=CCC3(C)C13C(=O)OC(C)C3(O)C2=O (stereo not drawn) | -17%[10 µM]
O=C1NC(=O)C(c2cn(-c3ccccc3)nc2-c2ccc(F)cc2)N1 (stereo not drawn) | 18%
O=C(C1CCN(S(=O)(=O)Cc2ccccc2)CC1)N1CCN(c2ccc(F)cc2)CC1 | -14%
Cc1ccc(NC(=O)Cn2c(=O)n(CCC(=O)NCc3ccccc3Cl)c(=O)c3ccccc32)cc1 | ?
CCN1CCC2(CCC1=O)CN(c1ncnc3c1CCC3)CCN2C (stereo not drawn) | -5%
O=C(NCCc1csc(-c2ccc(F)cc2)n1)c1c(F)cccc1Cl | -16%
Cc1ccc(N(C)S(=O)(=O)c2c(-c3ccccc3)csc2C(=O)O)cc1 | -20%
Cc1cc(/C=C/C#N)cc(C)c1Nc1nc(Nc2ccc3n[nH]nc3c2)c2[nH]cnc2n1 | -4%
Cc1nn2c(=O)cc(COc3ccc(/C=C(\C#N)C(=O)Nc4ccccc4C)cc3)nc2s1 | 20%
CCCSc1ncc(Cl)c(C(=O)Nc2sc(C(C)=O)c(C)c2C(=O)OCC)n1 | 3%
Cc1cc(C)n(Cc2cccc(C(=O)N3Cc4ccccc4C(O)C3)c2)n1 (stereo not drawn) | i
O=C(CCCc1ccccc1)N1CCCCCC1c1nc(C2CC2)no1 (stereo not drawn) | i
COc1ccc(Cn2c3c(c(=O)n2Cc2ccccc2)CCN(C(=O)CCc2cccnc2)C3)cc1 | 4%
O=C(Cc1ccc(-c2ccccc2)cc1)NCCS(=O)(=O)N1CCN(c2ccccc2F)CC1 | -4%
COc1cccc(C2c3c(ncn(-c4ccccn4)c3=N)Oc3ccc4ccccc4c32)c1 (stereo not drawn) | -6%
CCOC(=O)c1ccc(Nc2cc(-c3ccccc3)nc(C)n2)cc1 | -15%
COc1ccccc1Oc1c(NS(=O)(=O)c2ccc(C(C)(C)C)cc2)nc(-c2ncccn2)nc1OCCO | 21%
COc1cccc(C(=O)N2CCc3cc(OC)c(OC)cc3C2COc2ccc3c(C)cc(=O)oc3c2)c1 (stereo not drawn) | -17%
COc1cccc2sc(NC(=O)c3ccc4c(c3)OCCN(C3CCC3)C4)nc12 | i
O=C(OCC#CCSc1nnc(-c2cccc3ccccc23)o1)c1ccc2ccccc2c1 | -8%
CN(Cc1ccccc1C(F)(F)F)CC1CCCCC1 | 4%[39.2 µM]
C[N+]1(C)[C@@H]2C[C@@H](OC(=O)C(O)(c3cccs3)c3cccs3)C[C@H]1[C@@H]1O[C@@H]12 | -5%

The list continues:
SMILES | nsP2pro primary
Cc1ccc(C(=O)OCc2ccc([C@@H](CN)C(=O)Nc3ccc4cnccc4c3)cc2)c(C)c1 | 105%[activator][10 µM]
Cc1ccc(-c2cc3n(n2)CCCN(C(=O)CCN2C(=O)NC(C)(C)C2=O)C3)cc1C | i
CCOc1ccc(CCNC(=O)c2cccc(C(=O)c3ccccc3)c2)cc1OCC | -16%
COc1ccc(CN2CCN(C(=O)CCNC(=O)c3ccc(C(C)(C)C)cc3)CC2)cc1 | -1%
COc1c(C)c(OCC(O)C(C)(C)O)cc2c1COC2=O (stereo not drawn) | 2%
NS(=O)(=O)c1cc2c(cc1Cl)NC(C1CC3C=CC1C3)NS2(=O)=O (stereo not drawn) | 16%
O=C(O)c1ccccc1O | 6%&-6%
COC(=O)c1c(SCC(=O)Nc2cc(OC)cc(OC)c2)[nH]c2ccc(C)cc2c1=O | -18%
CC(C)C(=O)SCCCCCCC(=O)Nc1nc(-c2ccccc2)cs1 | -9%
Cc1ccc(S(=O)(=O)OCC(=O)Nc2ccc(C(=O)O)c(O)c2)cc1 | -12%
O=C(C(NS(=O)(=O)c1ccc2[nH]c(=O)ccc2c1)c1cccc(C(F)(F)F)c1)N(Cc1ccco1)Cc1cccs1 (stereo not drawn) | 7.9µM*
CNCC[C@@H](Oc1ccccc1C)c1ccccc1 | -2%
CCN1CCC(=C2c3ccccc3CCc3ccccc32)C1C (stereo not drawn) | -12%
COc1cc2nc(N3CCN(C(=O)c4ccco4)C4CCCCC43)nc(N)c2cc1OC (stereo not drawn) | -16%
CC(C)NC(=O)N[C@H]1CCN(C(=O)c2cnccn2)[C@@H]1C(=O)N[C@@H](CCCNC(=O)c1cnccn1)C(N)=O | -2%
C[N+](C)(C)CC(=O)O | 14%
CCOc1ccc(-n2c(SCC(=O)NCc3ccco3)nc3c([nH]c4ccccc43)c2=O)cc1 | -21%
CC1CCN(S(=O)(=O)c2ccc3c(ccn3CCC(=O)NCc3ccc(N(C)C)cc3)c2)CC1 | -2%
CCN1CCN(c2nnc(-n3cccc3C(=O)NCc3ccccc3OC)s2)CC1 | -29%
O=C(O)CCCn1cc(NC(=O)COc2ccccc2F)cn1 | -19%
Cc1ccc(S(=O)(=O)c2nc(-c3ccccc3F)oc2N2CCCCC2)cc1 | -14%
COc1cc(Cl)c(CN2CCC[C@H]2C(=O)O)cc1OC | 2%
Cc1ccc(-n2c(SCC(=O)c3ccccc3)nc3c([nH]c4ccccc43)c2=O)cc1 | -13%
COc1ccc(CCNC(=O)CCn2c(=O)c3ccccc3n(CC(=O)Nc3cc(Cl)ccc3C)c2=O)cc1OC | -11%
COc1ccc(C(=O)N2CC(=O)N(c3ccc(C)cc3)CC2C)c(OC)n1 (stereo not drawn) | 1%

Compounds shown so far that have a cyano group, in the order listed:
SMILES | nsP2pro primary
Cc1cc(/C=C/C#N)cc(C)c1Nc1nc(Nc2ccc3n[nH]nc3c2)c2[nH]cnc2n1 | -4%
Cc1nn2c(=O)cc(COc3ccc(/C=C(\C#N)C(=O)Nc4ccccc4C)cc3)nc2s1 | 20%

(continued)
SMILES | nsP2pro primary
O=[S+]([O-])(c1ccccc1)N1CC(Oc2ccc(F)c(F)c2)C1 | -22%
O=C(COc1ccc(Cl)cc1)Nc1ccc(-c2nc3ccccc3s2)c(O)c1 | ?
CCC(=O)N1CCc2cc(Br)cc(S(=O)(=O)NCCc3ccc(C)cc3)c21 | -10%
CN1CCN(CCCN2c3ccccc3Sc3ccc(Cl)cc32)CC1 | 18%
CC(C)CC1OC(=O)C2CCCN2C(=O)CCNC(=O)C(Cc2ccccc2)NC(=O)C(C(C)C)N(C)C(=O)C(C(C)C)N(C)C1=O (stereo not drawn) | -12%[10 µM]
CCCNCC(O)COc1ccccc1C(=O)CCc1ccccc1 (stereo not drawn) | 7%
O=C(Nc1ccccc1C(F)(F)F)N1Cc2ccccc2Oc2ncccc21 | -13%
COc1ccccc1CCNC(=O)Cc1c(C)c2cc(Cl)c(O)cc2oc1=O | -32%
COc1ccc(-c2cc(C)no2)cc1S(=O)(=O)N1CCN(c2cccc(C)c2)C(C)C1 (stereo not drawn) | -20%
COc1ccccc1Nc1cc2ccccc2c(=O)[nH]1 | 3%
CCc1nc2ccc(C(=O)NCCc3ccc(OC)cc3OC)cc2nc1CC | -14%
Cc1ccc(C(C)NC(=O)CN2C(=O)C3(CCNCC3)Nc3ccccc32)cc1 (stereo not drawn) | i
Cc1cccc(OCC(=O)Nc2ccc(S(=O)(=O)N(Cc3ccccc3)c3ccccc3)cc2)c1 | -6%
COc1ccc(CC(=O)N[C@H]2[C@H](O)[C@H](O)C[C@@H]2c2cccnc2)cc1 | i
CS(=O)(=O)N1CCN(c2nc(-c3ccc(Br)cc3)cs2)CC1 | -15%
CC(C)c1noc(Cn2nc(-c3ccccc3)c3ccccc3c2=O)n1 | 2%
COc1ccc(CN(Cc2ccco2)C(=O)COc2ccccc2Cl)cc1 | -16%
COC(=O)c1scc(-c2ccccc2)c1S(=O)(=O)Nc1cccc(C)c1C | -13%
O=C(/C=C/c1ccccc1)OCC1=CC[C@@H]2C(C(=O)O)=CO[C@@H](O[C@@H]3O[C@H](CO)[C@@H](O)[C@H](O)[C@H]3O)[C@H]12 | 11%[10 µM]
CC1(C)CC[C@]2(C(=O)O[C@@H]3O[C@H](CO)[C@@H](O)[C@H](O)[C@H]3O)CC[C@]3(C)C(=CCC4[C@@]5(C)C[C@H](O)[C@H](O[C@@H]6OC[C@@H](O)[C@H](O)[C@H]6O)[C@@](C)(CO)C5CC[C@]43C)C2C1 (stereo partly drawn) | -8%[5.1 µM]
COc1ccc2c(=O)n3nc(Nc4ccc5c(c4)CCC5)sc3nc2c1 | 2%
Nc1ccc(-c2ccnc(NCCCNC(=O)c3c(Cl)cccc3Cl)n2)cc1 | -9%
COc1ccc(OC)c(-c2nnc3n(CCc4ccccc4)c(=O)c4ccccc4n23)c1 | -16%
CCC1CCCCN1C(=O)CSc1nc(-c2ccc(OC)c(OC)c2)cc(C(F)(F)F)n1 (stereo not drawn) | -10%
CCOc1ccc(C2c3c(-c4ccccc4O)n[nH]c3C(=O)N2Cc2cccnc2)cc1OC (stereo not drawn) | 2%

Molecules from the list above that have a tert-butyl group:
SMILES | nsP2pro primary
COc1ccccc1Oc1c(NS(=O)(=O)c2ccc(C(C)(C)C)cc2)nc(-c2ncccn2)nc1OCCO | 21%
COc1ccc(CN2CCN(C(=O)CCNC(=O)c3ccc(C(C)(C)C)cc3)CC2)cc1 | -1%

(continued)
SMILES | nsP2pro primary
CCCN(C(=O)Cn1nc(Cc2cccnc2)c2ccccc2c1=O)c1ccc(C(C)C)cc1 | 2%
O=C1NC2(CN(C(=O)c3ccccc3)C2)Oc2ccccc21 | -5%[39.2 µM]
COc1ccccc1-c1ccnc(N[C@H]2CO[C@H]3[C@@H]2OC[C@@H]3NS(=O)(=O)c2cccs2)n1 | 5%
C=CCCC(=O)N1CCOc2c(O)cc(-c3nc4ccccc4s3)cc2C1 | i
COc1ccc(C2=NC(c3ccncc3)=Nc3ccc(OC)cc3N2)cc1 | 2%
N#Cc1cc(NC(=O)Nc2nnc(-c3ccncc3)s2)ccc1-c1ccc[nH]1 | i
Cc1ccc(CNC(=O)c2ccc3c(c2)CN(Cc2scnc2C)CCO3)cc1 | i
Cc1ccc(OCC(=O)OCc2cc(=O)n3nc(C4CCCCC4)sc3n2)cc1C | -20%
O=C1N(CC2CC2)CCCC1(O)CNCc1cc(F)cc(F)c1 (stereo not drawn) | 0%
COC(=O)N[C@H](C(=O)N1CCC[C@H]1c1ncc(-c2ccc3c(c2)O[C@@H](c2ccccc2)n2c-3cc3cc(-c4cnc([C@@H]5CCCN5C(=O)[C@@H](NC(=O)OC)C(C)C)[nH]4)ccc32)[nH]1)C(C)C | 0%&-14%
CCn1cc(S(=O)(=O)N2CCC(Cc3nncn3C)C2)cn1 (stereo not drawn) | -1%
CC(C)c1nc(CN(C)C(=O)N[C@@H](CCN2CCOCC2)C(=O)N[C@H](CC[C@H](Cc2ccccc2)NC(=O)OCc2cncs2)Cc2ccccc2)cs1 | -8%&33%
Cc1ccc(S(=O)(=O)N2CCC(n3c(C)nc4cccnc43)CC2)c(C)c1 | -9%
Cc1ccc(NC(=O)Nc2cc(-c3ccccc3-c3nn[nH]n3)ccc2N(CC(C)C)CC(C)C)cc1 | 3%
Cc1cc(C)c(S(=O)(=O)N2CCC(N3CCN(Cc4ccccc4)C(=O)C3=O)CC2)c(C)c1 | -17%
Cn1c(-c2ccccc2)c(P(=S)(c2ccccc2)c2ccccc2)c2ccccc21 | 1%
CC1(C)CC2C3=CCC4C5(C)CCC(OC6OC(C(=O)O)C(O)C(O)C6OC6OC(CO)C(O)C(O)C6OC6OC(CO)C(O)C(O)C6O)C(C)(CO)C5CCC4(C)C3(C)CCC2(C)C(OC2OCC(O)C(OC3OC(CO)C(O)C(O)C3O)C2O)C1O (stereo not drawn) | ?
O=C1N/C(=C\c2ccco2)C(=O)N1Cc1ccccc1 | 13µM*
COC(=O)c1ccc(NC(=O)c2nc3ccccc3n(C)c2=O)cc1 | 4%
CCn1c2ccccc2c2nnc(N3CCN(c4cc(C)ccc4C)CC3)nc21 | -29%
CC[C@H]1CN(C(C)=O)CC[C@H]1CC(=O)Nc1ccccc1 | -1%[39.2 µM]
Cc1nc(C)c(-c2ccc3ncnc(NCc4ncc[nH]4)c3c2)s1 | i
N#Cc1ccc(NC(=O)Nc2nnc(-c3ccncc3)s2)cc1 | ?
COc1ccc(C)cc1NC(=O)CCC[C@@H]1[C@H]2CCCN3CCC[C@@H](CN1Cc1cccnc1)[C@@H]23 | -4%
O=C(OCc1ccco1)c1ccc2c(c1)N(Cc1ccc([N+](=O)[O-])cc1)C(=O)c1ccccc1S2 | ?
CCCc1nn2c(=O)cc(COC(=O)c3ccccc3NC(=O)COc3ccccc3)nc2s1 | -24%
Cc1cc2c(s1)c1cnn(Cc3cccc(C)c3F)c(=O)c1n2C | -4%
Cc1noc2c(Nc3ccc(C(N)=O)cc3)cc(-c3ccsc3)nc12 | i
COc1cccc(CNC(=O)Cn2ccc3cc(S(=O)(=O)N4CCCC4)ccc32)c1 | -16%

Two of the compounds above, with each value named.
> CC(C)c1nc(CN(C)C(=O)N[C@@H](CCN2CCOCC2)C(=O)N[C@H](CC[C@H](Cc2ccccc2)NC(=O)OCc2cncs2)Cc2ccccc2)cs1
  nsP2pro primary: -8%&33%

> Cc1ccc(S(=O)(=O)N2CCC(n3c(C)nc4cccnc43)CC2)c(C)c1
  nsP2pro primary: -9%

Screening results: PubChem, National Center for Advancing Translational Sciences (NCATS)
